VDR inhibitor: blocks the human vitamin D receptor | VDR-SRC2-3 peptide fluorescence polarization, 2 h | P11473 | Potency, µM, for the others: max response, negative = inhibition, usual class: inhibitors | 0.93% of 400,000 active; active = well fitted inhibition curve with a large enough effect; inconclusive = small, poorly fitted or top-dose-only effect, or another doubt; inactive = no such curve, though single readings can be large or run the other way; note: series mostly up to about 120 µM
Target sequence (P11473 whole entry, looked up): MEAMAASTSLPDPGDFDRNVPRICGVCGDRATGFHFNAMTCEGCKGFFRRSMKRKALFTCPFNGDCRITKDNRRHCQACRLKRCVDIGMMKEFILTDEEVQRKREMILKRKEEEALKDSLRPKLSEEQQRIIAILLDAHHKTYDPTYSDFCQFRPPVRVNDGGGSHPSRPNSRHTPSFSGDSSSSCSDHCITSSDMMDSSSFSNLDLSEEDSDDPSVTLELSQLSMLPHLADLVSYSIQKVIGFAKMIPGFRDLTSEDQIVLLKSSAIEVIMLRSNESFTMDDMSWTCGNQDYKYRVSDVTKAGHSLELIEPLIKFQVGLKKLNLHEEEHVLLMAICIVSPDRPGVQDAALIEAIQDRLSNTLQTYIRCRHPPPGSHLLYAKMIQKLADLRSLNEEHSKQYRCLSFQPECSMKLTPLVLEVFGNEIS
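Inhibition of the VDR/SRC2-3 peptide interaction is quantified by fluorescence polarization. Compounds (23 nl, pintool) incubate with the reagents for 2 hours at ambient room temperature.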
Active calls of the source: *; ? = inconclusive; & = joins results of further samples. % is set by controls: 0 for no effect and ±100 for the full control effect; potency is the fitted concentration of half-maximal effect. An excerpt (hit frequency here may not be typical).

nr	Compound	VDR inhibitor
1	CN1CCN(S(=O)(=O)NC[C@H]2O[C@@H](n3cnc4c(N)ncnc43)[C@H](O)[C@@H]2O)CC1	-12%
2	CCOc1ncccc1C(=O)Nc1cc(S(=O)(=O)N2CCOCC2)ccc1OCC(F)(F)F	-10%
3	CC(C)(C)c1cc(C(=O)Nc2ccccc2)ccn1	0%
4	COCCNc1nc(-c2ccccc2)nc2ccccc12	-5%
5	Cc1ccc(Cl)cc1NC(=O)COC(=O)CC1CCCCC1	11%
6	CCOC(=O)C1C(c2ccccc2)C(C(=O)OCC)C1c1ccccc1 (centres undefined)	-5%
7	CNc1ncc(C(=O)C(C)(C)C)s1	9%
8	COC(=O)C1C(=O)C2=C(CC1C)Nc1ccccc1NC2c1cccs1 (centres undefined)	7%
9	Cc1ccccc1CSc1nnc(C)c(=O)[nH]1	3%
10	Cc1ccnc(NC(=O)Nc2ccc3c(c2)OCO3)c1	2%
11	CC(C)(C)NC(=O)COC(=O)c1ccc(NC(=O)CC#N)cc1	17%
12	Cc1cc(N=NC(=O)c2ccccc2O)c2ccccc2c1O	-4%
13	Cc1c(Cl)cccc1NC(=O)c1cc(-c2ccc3c(c2)OCO3)on1	-3%
14	CN(C(=O)C1CCOC1)c1nnc(-c2cccnc2)s1 (centres undefined)	16%
15	CC(=O)c1ccc(NC(=O)c2ccc3c(Cl)c4c(nc3c2)CCCC4)cc1	9%

Some of these compounds in order of length of the SMILES, highest first.
nr	Compound	VDR inhibitor
15	CC(=O)c1ccc(NC(=O)c2ccc3c(Cl)c4c(nc3c2)CCCC4)cc1	9%
12	Cc1cc(N=NC(=O)c2ccccc2O)c2ccccc2c1O	-4%
14	CN(C(=O)C1CCOC1)c1nnc(-c2cccnc2)s1 (centres undefined)	16%
7	CNc1ncc(C(=O)C(C)(C)C)s1	9%

Structural class: the compounds so far with a tert-butyl group (3)
nr	Compound	VDR inhibitor
3	CC(C)(C)c1cc(C(=O)Nc2ccccc2)ccn1	0%
7	CNc1ncc(C(=O)C(C)(C)C)s1	9%
11	CC(C)(C)NC(=O)COC(=O)c1ccc(NC(=O)CC#N)cc1	17%

(next part)
nr	Compound	VDR inhibitor
16	CCOc1ccc(/C=C2\SC(=S)N(NS(=O)(=O)c3ccc(C)cc3)C2=O)cc1OC	-7%
17	Cc1ccc(NC(=O)COC(=O)CN2C(=O)NC(C)(C)C2=O)cc1S(=O)(=O)N1CCOCC1	14%
18	COc1ccc(C)cc1S(=O)(=O)N(C)CC(=O)NC1CCCCCC1	0%
19	COc1cc(NC(=O)c2cc(-c3ccc(C)cc3)on2)cc(OC)c1OC	-19%
20	O=C(CCNC(=O)c1ccco1)Nc1cccc(C(F)(F)F)c1	-7%
21	CC(=O)OCC(OC(C)=O)C(OC(C)=O)C(OC(C)=O)C(=O)Nc1ccccc1C (centres undefined)	13%
22	O=C(COc1ccc(Cl)cc1)N1CCN(c2ccc([N+](=O)[O-])c(N3CCCCC3)c2)CC1	-4%
23	COC(=O)c1ccc(=O)n(CC(=O)c2ccc(Cl)cc2)c1	13%
24	O=C(CCCCC(=O)Nc1c(I)cc(I)c(C(=O)O)c1I)Nc1c(I)cc(I)c(C(=O)O)c1I	-24%&-7%
25	COc1ccc(-n2c(Cc3cccn3C)nnc2SCC(=O)Nc2cc(C)cc(C)c2)cc1	-5%
26	O=C(CSc1nnc(Cc2ccccc2)n1C1CCCCC1)N1CCOCC1	-12%
27	COc1cc(/C=N/NC(=O)c2nc(C)cc(C)n2)ccc1O	-3%
28	Cc1cc2cc(CN(Cc3ccc4c(c3)OCO4)Cc3nnnn3C3CCCC3)c(=O)[nH]c2cc1C	3%
29	CCCc1c(C)nc2ccc(OC)cc2c1SCCC(=O)O	-13%
30	COc1ccc(NC(=O)CN2CCOCC2)cc1	4%
31	COc1cc(OC)cc(C(=O)NCCCNC(=O)c2ccccn2)c1	-8%
32	COc1cc(NC(=O)CCCNC(=O)Cn2cnc3sc4c(c3c2=O)CCCC4)cc(OC)c1OC	-22%
33	Nc1c(C(=O)O)sc2nc(-c3ccc(F)cc3)cc(-c3ccccc3)c12	-29%
34	CCOc1ccc(CCNC(=O)CN2C(=O)COc3ccc(S(=O)(=O)N4CCCC4)cc32)cc1	3%
35	O=C(C1CCC1)N1CCC(O)(c2cccc(F)c2)CC1	-9%
36	CSc1n[nH]c(NCc2cccs2)n1	15%
37	NC(=O)CCn1nc(-c2ccc(Cl)cc2)c2ccccc2c1=O	0%
38	COc1ccc(N(C)S(=O)(=O)c2cccc3nsnc23)cc1	9%
39	O=C(N/N=C/c1cccnc1)c1ccc2c(c1)OCO2	5%
40	CC1(C)OC(C)(C)/C(=C/Nc2ccccc2)C1=O	-6%
41	CCN(CC)c1ccc(C=Nc2ccc(N(C)C)cc2)c(O)c1	?
42	Cc1cccc(-c2ncc(CN3CCC(CO)(CCCc4ccccc4)CC3)cn2)c1	-25%
43	CC(=O)c1ccc(N2CCN(C(=O)c3ccco3)CC2)c(F)c1	6%
44	COc1ccc(N(CC(=O)NCc2ccc3c(c2)OCO3)S(=O)(=O)c2ccccc2[N+](=O)[O-])c(OC)c1	-10%
45	COC(=O)[C@H](Cc1ccc(O)cc1)NC(=O)Cn1cnc2c(NCc3ccccc3)ncnc21	-25%
46	Cc1nn(CC(=O)N2CCOCC2)c(=O)c2c1sc1ccccc12	-17%
47	Cc1ccc(-c2n[nH]c(=O)c3ccccc23)cc1N	-15%
48	CN(Cc1cccc(F)c1)C(=O)c1cc(S(=O)(=O)N2CCOCC2)ccc1N1CCCC1	-1%
49	Nn1c(SCc2cccc(Br)c2)nnc1-c1ccncc1	1%
50	Cc1cc(C=O)c(C)n1-c1cc(C(F)(F)F)ccc1N1CCOCC1	-7%
51	O=C(Nc1ccccc1O)c1ccc(C(=O)c2ccccc2)o1	-9%
52	Cc1cc(C)n(-c2ccc(C(=O)Nc3sccc3C(N)=O)cc2)n1	12%
53	COc1ccc(/C=C(/NC(=O)c2ccco2)C(=O)N2CCCC2=O)cc1	-10%
54	COC(=O)c1ccccc1NC1=C/C(=N\S(=O)(=O)c2ccc(C(=O)O)cc2)c2ccccc2C1=O	25µM*
55	COc1ccc(NC(=O)c2ccc(F)c(F)c2)c2ccccc12	6%
56	CCOc1cccc2sc(NC(=O)c3ccc(Br)s3)nc12	11%
57	CCCCn1c(N)c(N(CC(C)C)C(=O)c2cc(Br)c(Br)s2)c(=O)[nH]c1=O	-1%
58	CC(=O)c1cccc(S(=O)(=O)N2CCC(C(=O)Oc3ccc(-c4nnco4)cc3)CC2)c1	-12%
59	O=[N+]([O-])c1cccc(COc2cccc(CN3CCCC3)c2)c1	4%
60	CCn1nc(C)c(Br)c1-c1nc(-c2ccc(C)cc2)no1	20%
61	Cc1ccc(CNC(=O)Cn2nc(N3CCN(c4ccccc4)CC3)ccc2=O)cc1	2%
62	Cc1ccc(/C=N/n2c(C)nnc2C)o1	?
63	N#CC(c1nc2ccccc2nc1OCCO)S(=O)(=O)c1ccccc1 (centres undefined)	-8%
64	O=C(NCc1cccs1)C(=O)NCC1OCCCN1S(=O)(=O)c1ccc(F)cc1 (centres undefined)	-5%
65	CC(=O)Nc1ccc(S(=O)(=O)N2CCC(Oc3ccc(-n4cnnn4)cc3)CC2)cc1	21%&3%
66	COc1ccc(/C=N\NC(=O)c2c(C)nc3ccc(Br)cn23)cc1	14%
67	CCN(CC)CC(C)(C)NS(=O)(=O)c1ccc(Cl)cc1	-1%
68	C=C1CCN(c2ccc(C(=O)NCc3ccccc3)cc2[N+](=O)[O-])CC1	2%
69	CN1C(=O)/C(=C/c2ccc(OC(=O)c3ccco3)cc2)SC1=S	-17%
70	O=C(NC(Cc1ccccc1)C(=O)O)NC12CC3CC(CC(C3)C1)C2 (centres undefined)	-9%
71	COc1ccccc1C(=O)Nc1nc(-c2ccc(Br)cc2)ns1	13%
72	C=CCC(C)(O)c1cccc(Br)c1 (centres undefined)	5%
73	COC(=O)c1ccc(CSc2nnc(NC(C)C)s2)cc1	24%
74	CCN1CCN(CCCNC(=O)C2CCN(c3nnc(-n4cccc4)s3)CC2)CC1	-7%
75	CCOc1ccc(C=NNC(=O)c2cccc3ccccc23)cc1OCC	-16%

Additional entries:
nr	Compound	VDR inhibitor
76	Fc1cccc(F)c1[B-](F)(F)F	16%
77	COc1ccc(NC(=O)CCc2c(C)nc3nc(CNC(=O)c4cccc(F)c4)nn3c2C)cc1OC	-15%
78	Cc1cccc(Nc2ncnc3c2cnn3C)c1C	-1%
79	Cc1ccc(C(=O)O)cc1NC(=O)Nc1ccc2c(c1)OCO2	-8%
80	CN1CCCN(C(=O)c2ccc(Br)cc2)CC1	-18%
81	O=C(Nc1cccc(F)c1)N1CC2(CCN(C(=O)c3cnccn3)CC2)C1	1%
82	CC(NC(=O)c1cccc(C(F)(F)F)c1)C1CCCO1 (centres undefined)	-5%
83	C=CCOc1ccc(/C=C/C(=O)OCC(=O)NCc2ccco2)cc1	?
84	COc1ccc(Cn2nnnc2C(c2ccc(N(C)C)cc2)N2CCC(C)CC2)cc1 (centres undefined)	-1%
85	CC(C)c1cc(=O)oc2c3c4c(cc12)CCCN4CCC3	-3%
86	CN(CC(=O)Nc1cccc(F)c1)C(=O)Cn1c(=O)oc2ccccc21	-15%
87	COc1ccccc1N1CCN(C(=O)CSc2ncccc2-c2nc3ccccc3[nH]2)CC1	7%
88	CCc1ccccc1NC(=S)N(CCCN1CCN(C)CC1)Cc1cccs1	-13%
89	Cc1ccc(C)c(N2CCN(C(=O)CCNS(=O)(=O)c3ccc4c(c3)CCN4C(=O)C3CC3)CC2)c1	4%
90	Brc1ccccc1-c1cnco1	15%
91	O=C(COc1ccc([N+](=O)[O-])cc1)N1CCN(c2nnc(-c3ccccc3)c3ccccc23)CC1	4%
92	O=C(Cc1ccc(Br)cc1)N1CCN(c2ccc(F)cc2)CC1	-6%
93	CC(C)c1onc(C(=O)N2CCCCC2C)c1[N+](=O)[O-] (centres undefined)	-4%
94	CC(C)Oc1ccc(C2CC(=O)N(c3ccc(N(C)C)cc3)C2=O)cc1 (centres undefined)	-12%
95	O=C(NCc1cc(C(F)(F)F)cc(C(F)(F)F)c1)C12CN(Cc3ccccc3)CC1C(c1cccc([N+](=O)[O-])c1)=NO2 (centres undefined)	-17%
96	CCOC(=O)c1oc2ccc(S(=O)(=O)n3nc(-c4cc(OC)cc(OC)c4)cc3N)cc2c1C	-15%
97	O=C(CSc1oc(-c2ccccc2)nc1S(=O)(=O)c1ccccc1)NCC1CCCO1 (centres undefined)	3%
98	O=S(=O)(NCCCc1ccccc1)c1cccc2nsnc12	5%
99	Cc1cccc(NCC(=O)N/N=C\c2ccc[nH]2)c1	12%
100	CC(=O)c1ccc(N(C(=O)CNC(=O)c2ccco2)C(C(=O)NC2CCCC2)c2cccnc2)cc1 (centres undefined)	-14%
101	CCNC(=S)N/N=C/c1cc(C)n(-c2ccc(Cl)cc2)c1C	-17%
102	Cc1cc(C(=O)N2CCCc3ccccc32)no1	3%
103	CCc1nnc2c3ccccc3nc(Nc3ccc(C(C)=O)cc3)n12	15%
104	COc1ccc(CN2CCN(C(=O)CCC(=O)Nc3nnc(CC(C)C)s3)CC2)cc1F	5%
105	CCOC(=O)N1CCC(NC(=O)c2ccc3c(c2)N(Cc2ccc(F)cc2)C(=O)c2ccccc2S3=O)CC1 (centres undefined)	1%
106	CC(C)(O)CN(C(=O)c1ccc([N+](=O)[O-])cc1)C1CCCC1	-12%
107	Cc1cc(/C=N/n2cnnc2)c(C)n1-c1cccc(Cl)c1	9%
108	CC1(C)CC(=O)CC(=NCC(=O)O)C1	7%
109	COc1ccc(NC(=O)C2CCN(S(=O)(=O)c3cccc4nonc34)CC2)cc1OC	-2%
110	COc1ccc(NC(=O)COC(=O)/C=C/c2ccccc2[N+](=O)[O-])cc1	-22%
111	COc1ccc(N2C(=O)CC(NC34CC5CC(CC(C5)C3)C4)C2=O)c(OC)c1 (centres undefined)	4%
112	N#Cc1ccccc1OCC(=O)Nc1c(C(=O)C2CC2)oc2ccccc12	1%
113	CCC(C)C(NC(=O)OC(C)(C)C)C(=O)NC(C(=O)NC(C)C(N)=O)C(C)C (centres undefined)	20%
114	OCCOCCn1c(-c2ccccc2)nc(=S)c2c1CCCC2	-14%
115	Cc1ccc(NC(=O)c2cccc(N3CCCS3(=O)=O)c2)cc1	16%
116	O/N=C(\C[n+]1ccccc1)c1ccc(Br)cc1	6%
117	O=c1cnc2cnc(N3CCNCC3)nc2n1Cc1ccc(F)cc1	-20%
118	COCCCNCCCCOc1ccc(C)cc1[N+](=O)[O-]	-4%
119	COc1cc(CC(=O)OCC(=O)Nc2ccc3c(c2)OCCO3)cc(OC)c1OC	-8%
120	COc1cc(OC)c2c(-c3cccc(-c4ccc(OC)c(OC)c4)c3)cc(=O)oc2c1	7%
121	Oc1ccccc1-c1nc(/C=C/c2ccc(F)cc2)nn1-c1ccccc1	0%
122	Cc1cc(Cl)c(S(=O)(=O)N2CCN(c3ccc(F)cc3)CC2)cc1OCC(=O)NC1CCCCC1	-8%
123	COc1cccc(CN2CCNC(=O)C2CC(=O)N(C)C2CCCCC2)c1 (centres undefined)	0%
124	COc1ccc(S(=O)(=O)NCC(c2cccnc2)N2CCN(C)CC2)cc1OC (centres undefined)	7%
125	C[C@@H]1CN[C@@H](CCO)/C1=C\c1ccccc1	?
126	Cc1ccc(S(=O)(=O)NCCNc2ccccc2[N+](=O)[O-])cc1	0%
127	O=C(COC(=O)c1ccc(OC(F)F)cc1)NCCCN1CCCC1=O	-15%
128	O=C(O)c1[nH]c2ccccc2c1CC(=O)N1CCOCC1	17%
129	COc1ccc(C2(CNC(=O)c3ccc(OC)c([N+](=O)[O-])c3)CCCCC2)cc1OC	0%
130	O=C(CSc1ccc(-c2ccncc2)nn1)c1ccccc1	-11%
